PrP UTR inh: inhibition of PrP 5' UTR reporter expression. cell-based PrP 5' UTR mRNA reporter, plate reader. inhibition, % (concentration not given with the values). hit rate 0.35% among 340,000. AID 488862;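 active = every replicate at 50% or more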;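 note: 0 = median of the neutral control wells; tested in H4 reporter cells; numbers are from one replicate; inactives centre near -14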
Sa RN4220 lethal: S. aureus RN4220 growth inhibition; OD600, 16 h; inhibition, % (concentration not given with the values); hit rate 0.33% among 330,000; AID 1259311;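 active = z-score of -3 or lower and OD600 up to 0.18 on both plates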;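 note: plate controls were untreated cells for no effect and reference antibiotic for full effect; stock transfer was 100 nL into about 80 µL; one replicate is shown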
ugtP null kill: compounds lethal to S. aureus RN4220 ugtP deletion mutant. growth inhibition, % (test concentration not listed). OD600 growth, 16 h; some inactives read as strong as hits. hit rate 0.54% among 330,000;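 active = z-score under -3 and OD600 up to 0.15 on both plates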;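 note: plate controls were untreated wells for no effect and antibiotic for full effect; wells of about 80 µL received 100 nL stock; the first replicate is given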
Mtb hypoxia rep: reduces hypoxia-regulated biosensor signal in M. tuberculosis; M. tuberculosis hypoxia-regulated fluorescent reporter, fluorescence; fluorescence inhibition, % (test concentration not listed); hit rate 0.1% among 300,000;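 active = 35 to 45% if threefold the growth effect, above 45% if 1.5-fold the growth effect; inactive = the rest, general growth blockers included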;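 note: wells of about 50 µL received 100 nL stock; 0% = vehicle wells and 100% = reference inhibitor wells; whole bacteria with a GFP reporter of the hypoxia response; strong numbers were not always called active; many hits fall short of the cut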
BJeLR viability: BJeLR cell viability loss; inhibition, % (test concentration not listed); hit rate 0.17% among 300,000; BJeLR (HRASV12) viability, CellTiter-Glo ATP luminescence, 48 h; reference of the scale not given here; AID 1554;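 active = replicate mean above 50%; inconclusive = above 50% but judged a plate artefact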;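 note: 50 nL library stock added to about 25 µL; numbers are from one replicate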
Bead autofluor: compound fluorescence in toxin protease inhibitor counterscreen; compound autofluorescence counterscreen, microsphere flow cytometry; stronger effect = higher value; fluorescence intensity (no concentration beside the values); hit rate 3.1% among 360,000;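 active = at least 3 SD above the mean of all compounds, about 16000 in these data; inconclusive = too few beads counted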;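 note: 100 nL of 1 mM stock went into each well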
Mtb hypoxia rep growth: further read-out of Mtb hypoxia rep, marked with its call; growth inhibition, %; measured here: M. tuberculosis growth (absorbance);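 0% = vehicle and 100% = reference antibiotic; read after six days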
Numbers without * were called inactive; ? = inconclusive; / = not tested or not shown.

SMILES | PrP UTR inh | Sa RN4220 lethal | ugtP null kill | Mtb hypoxia rep | Mtb hypoxia rep growth | BJeLR viability | Bead autofluor
Cc1ccc(NC(=S)Nc2ccc3cn[nH]c3c2)cc1 | -12 | -2.8 | 8 | 16 | 7 | -1 | 2428
Cc1cccc(Cc2nnc(CCC(=O)N(C)Cc3ccncc3C)o2)c1 | -24 | 4.0 | -1 | 5 | 4 | 21 | 4186
O=C(NC1CCCCCC1)C1CCN(C(=O)c2cccc(Cl)c2)CC1 | -5 | 1.9 | 10 | 16 | 10 | 4 | 4184
CC1=C(C(=O)Nc2ccccc2)C(c2ccc(O)cc2)N2C(=O)CSC2=N1 (configuration not stated) | -4 | -0.5 | -1 | 2 | 1 | -4 | 3213
COC(=O)c1ccc2c(=O)sc(N3CCC(C(N)=O)CC3)nc2c1 | -15 | -0.4 | -1 | 6 | 10 | -1 | 5163
COc1ccccc1N1C(=O)c2ccccc2NC1c1ccncc1 (configuration not stated) | -12 | 2.5 | -9 | / | / | -5 | 4186
O=C(O)COc1ccccc1C=NNc1ccc([N+](=O)[O-])cc1S(=O)(=O)Nc1ccc(Cl)cc1 | -13 | -1.8 | -2 | 13 | 8 | / | 3646
COC(=O)C1=C(c2ccc(S(C)(=O)=O)cc2)CC2CCC1N2C(=O)N1CCCCC1 (configuration not stated) | / | 1.0 | 2 | 8 | -2 | / | /
Cc1c(-c2ccccc2)nc2ccccc2c1C(=O)O | -2 | 2.4 | 1 | 4 | 7 | -3 | 10576
CCN1C(=O)C2C(c3ccc(-c4ccc(Cl)c(Cl)c4)cc3)N[C@@](C)(C(=O)OC)C2C1=O (some centres not stated) | / | -4.3 | 2 | 3 | 9 | / | /
CCOC(=O)C(CC)Sc1nc2c(c(=O)[nH]c(=O)n2C)n1C/C=C(/C)Cl (configuration not stated) | -29 | -3.5 | 1 | / | / | 4 | 2633
Cn1c(N)c(C(=O)COC(=O)CCCc2nc3ccccc3s2)c(=O)n(C)c1=O | -5 | 8.9 | 6 | 13 | 10 | -5 | 4090
O=C(COC(=O)CCSc1ccccc1)Nc1ccccc1 | 1 | 2.7 | 4 | 13 | 41 | / | 3808
CC1CN(C(=O)c2cc(-c3ccncc3)nc3ccccc23)CC(C)O1 (configuration not stated) | -18 | -0.1 | 3 | 5 | 6 | / | 3824
CCOC(=O)c1[nH]c(C)c(C(=O)N2CCN(c3ccccc3)CC2)c1C | -10 | -3.1 | 10 | 4 | 7 | -4 | 8318
CN(C)CCn1c2c(c(SCC(=O)Nc3ccccc3C(F)(F)F)nc1=O)CCCC2 | -66 | 3.9 | 4 | 8 | 3 | 2 | 5653
CCCCC(C(=O)OCC)C(N)Cc1ccc(F)cc1 (configuration not stated) | -22 | 7.0 | 4 | 17 | 10 | -2 | 1895
CCN=C1S/C(=C\c2ccc(OCC)c(OC)c2)C(=O)N1CC | 8 | 10 | 8 | 0 | 10 | -2 | 2116
O=S(=O)(Nc1ccc(Cl)nn1)c1ccccc1 | -3 | 1.4 | 5 | 2 | 3 | 2 | 4098
COC(=O)c1ccc(C(C(=O)NC2CCCCC2)N(Cc2ccccc2)C(=O)Cc2cccs2)cc1 (configuration not stated) | -32 | 6.4 | 3 | 16 | 7 | -1 | 2331
COc1cc(NC(=S)NNC(=O)C(C)(C)O)cc(OC)c1 | -20 | 0.3 | 4 | 1 | 1 | -12 | 5194
Cc1ccc(NC(=O)CNC(=O)N2CC(=O)Nc3ccccc32)cc1F | -22 | -7.6 | 0 | -1 | 7 | 0 | 3767
Cc1cc(C)c(C#N)c(SCc2ccccc2C(=O)O)n1 | -3 | 2.6 | -7 | / | / | 3 | 2679
Cc1ccc(C(=O)OCCN2CCN(c3ncc(C(F)(F)F)cc3Cl)CC2)cc1 | -28 | -6.1 | 63 | 11 | 8 | 13 | 2483
CN(CC(=O)Nc1cccc2c1CCCC2)S(=O)(=O)c1ccc(Cl)cc1 | -17 | 0.9 | -1 | 7 | 7 | -2 | 8714
CCOC(=O)[C@@H]1C(c2c(OC)cc(OC)cc2OC)=NO[C@@H]1C(=O)OCC | 7 | -4.1 | -3 | -1 | 9 | -1 | 2652
COC(=O)COc1ccc(S(=O)(=O)Nc2cc([N+](=O)[O-])ccc2C)cc1 | -10 | 5.0 | 5 | 2 | -2 | 0 | 3325
CC(C)N1C/C(=C/c2ccsc2)C(=O)/C(=C/c2ccsc2)C1 | -73 | 0.5 | -3 | 1 | 2 | 27 | 2701
Cn1c(N/N=C/c2cccs2)nc2c1c(=O)n(Cc1ccccc1)c(=O)n2C | -14 | / | / | / | / | 5 | 2312
O=C(Nc1ccc(OC(F)(F)F)cc1)Oc1ccccc1N1CCOCC1 | -23 | 5.6 | -15 | -6 | 4 | 1 | ?

A different layout for part of the listing above:
| molecule | PrP UTR inh | Sa RN4220 lethal | ugtP null kill | Mtb hypoxia rep | Mtb hypoxia rep growth | BJeLR viability | Bead autofluor |
| --- | --- | --- | --- | --- | --- | --- | --- |
| Cc1ccc(NC(=S)Nc2ccc3cn[nH]c3c2)cc1 | -12 | -2.8 | 8 | 16 | 7 | -1 | 2428 |
| Cc1cccc(Cc2nnc(CCC(=O)N(C)Cc3ccncc3C)o2)c1 | -24 | 4.0 | -1 | 5 | 4 | 21 | 4186 |
| O=C(NC1CCCCCC1)C1CCN(C(=O)c2cccc(Cl)c2)CC1 | -5 | 1.9 | 10 | 16 | 10 | 4 | 4184 |
| CC1=C(C(=O)Nc2ccccc2)C(c2ccc(O)cc2)N2C(=O)CSC2=N1 (configuration not stated) | -4 | -0.5 | -1 | 2 | 1 | -4 | 3213 |
| COC(=O)c1ccc2c(=O)sc(N3CCC(C(N)=O)CC3)nc2c1 | -15 | -0.4 | -1 | 6 | 10 | -1 | 5163 |
| COc1ccccc1N1C(=O)c2ccccc2NC1c1ccncc1 (configuration not stated) | -12 | 2.5 | -9 | / | / | -5 | 4186 |
| O=C(O)COc1ccccc1C=NNc1ccc([N+](=O)[O-])cc1S(=O)(=O)Nc1ccc(Cl)cc1 | -13 | -1.8 | -2 | 13 | 8 | / | 3646 |
| COC(=O)C1=C(c2ccc(S(C)(=O)=O)cc2)CC2CCC1N2C(=O)N1CCCCC1 (configuration not stated) | / | 1.0 | 2 | 8 | -2 | / | / |
| Cc1c(-c2ccccc2)nc2ccccc2c1C(=O)O | -2 | 2.4 | 1 | 4 | 7 | -3 | 10576 |
| CCN1C(=O)C2C(c3ccc(-c4ccc(Cl)c(Cl)c4)cc3)N[C@@](C)(C(=O)OC)C2C1=O (some centres not stated) | / | -4.3 | 2 | 3 | 9 | / | / |
| CCOC(=O)C(CC)Sc1nc2c(c(=O)[nH]c(=O)n2C)n1C/C=C(/C)Cl (configuration not stated) | -29 | -3.5 | 1 | / | / | 4 | 2633 |
| Cn1c(N)c(C(=O)COC(=O)CCCc2nc3ccccc3s2)c(=O)n(C)c1=O | -5 | 8.9 | 6 | 13 | 10 | -5 | 4090 |
| O=C(COC(=O)CCSc1ccccc1)Nc1ccccc1 | 1 | 2.7 | 4 | 13 | 41 | / | 3808 |
| CC1CN(C(=O)c2cc(-c3ccncc3)nc3ccccc23)CC(C)O1 (configuration not stated) | -18 | -0.1 | 3 | 5 | 6 | / | 3824 |
| CCOC(=O)c1[nH]c(C)c(C(=O)N2CCN(c3ccccc3)CC2)c1C | -10 | -3.1 | 10 | 4 | 7 | -4 | 8318 |
| CN(C)CCn1c2c(c(SCC(=O)Nc3ccccc3C(F)(F)F)nc1=O)CCCC2 | -66 | 3.9 | 4 | 8 | 3 | 2 | 5653 |
| CCCCC(C(=O)OCC)C(N)Cc1ccc(F)cc1 (configuration not stated) | -22 | 7.0 | 4 | 17 | 10 | -2 | 1895 |

The list goes on.
SMILES | PrP UTR inh | Sa RN4220 lethal | ugtP null kill | Mtb hypoxia rep | Mtb hypoxia rep growth | BJeLR viability | Bead autofluor
CN(C)c1cccc(C(=O)OCc2cc(=O)oc3cc(O)ccc23)c1 | -2 | 7.9 | -22 | -2 | -6 | 5 | 3870
CCN(C(=O)C1CCN(S(=O)(=O)c2ccc3c(c2)oc(=O)n3C)CC1)c1cccc(C)c1 | -1 | 0.6 | 14 | 3 | -2 | 8 | 5827
O=C(CN1C(=O)COc2ccc(Cl)cc21)N1CCc2ccccc21 | -9 | 4.6 | 2 | 3 | 7 | -15 | 11168
O=C(Nc1ccccc1Cl)c1ccc(S(=O)(=O)NCC2CCCO2)cc1 (configuration not stated) | -17 | 2.1 | -2 | -3 | 0 | -1 | 6093
O=C(Cn1cnc2ccccc21)NN=Cc1cccnc1 | / | 1.2 | -2 | -2 | 0 | / | /
Clc1ccc(SCCn2ccnc2)cc1 | -7 | -2.0 | -7 | 5 | 3 | 10 | 2313
Clc1ccccc1-c1ccc2ncnc(NCc3ccc4c(c3)OCO4)c2c1 | -33 | -12 | -42 | 5 | 7 | / | 3940
Nc1nc(NC(=O)C(Cl)(Cl)Cl)nn1-c1ccccc1 | -17 | 16 | -6 | 4 | -3 | 5 | 9698
CC1(C)CC2CC(C)(CN2S(=O)(=O)c2cccc(C(=O)OCC(N)=O)c2)C1 (configuration not stated) | 1 | 6.5 | 3 | -5 | 6 | -4 | ?
CC(=O)Nc1ccc(-c2csc(-c3cccnc3)n2)cc1 | -81 | 1.4 | -7 | -3 | 3 | -4 | 3305
O=C1CCc2cc(S(=O)(=O)N3CCC(C(=O)NCc4ccccn4)CC3)ccc2N1 | -4 | -2.0 | 6 | / | / | 5 | 5230
COc1ccc(-c2nc(C)sc2CC(=O)O)cc1OC | -27 | 9.4 | 8 | 10 | -1 | 1 | 4522
COc1ccc(-c2cc(=O)oc3cc(OC(C)C(=O)Nc4ccc(CN5CCOCC5)cc4)ccc23)cc1 (configuration not stated) | 14 | -1.2 | 7 | 10 | 8 | -14 | 5335
COc1cccc(NC(=O)COC(=O)CCS(=O)(=O)c2ccc(C)cc2)c1 | -9 | 5.5 | 7 | 4 | 5 | -13 | 4329
Cn1c(SCC(=O)NCc2ccc3c(c2)OCO3)nnc1-c1c[nH]c2ccccc12 | -9 | 2.8 | -4 | 6 | 10 | -3 | 16863*
O=C(NCc1cccnc1)c1cn(CCc2ccccc2)nn1 | -12 | 3.0 | -1 | -4 | 7 | / | 4380
CC1CN(CC(=O)Nc2ccc(Br)cn2)CC(C)O1 (configuration not stated) | -20 | 2.4 | 3 | 7 | 2 | 6 | 3846
O=C(c1cc(Sc2ccc(Cl)cc2)nc2ccccc12)N1CCN(c2ccccn2)CC1 | -40 | 16 | -1 | -9 | 7 | / | 4935
O=C(NCc1ccccc1Cl)c1csc2c1CCCCC2 | -14 | -1.5 | 4 | 19 | 19 | 0 | 3909
CC1(C)CC(=O)C2=C(C1)OC1=C(C2)C(=O)CC(C)(C)C1 | -13 | -0.3 | -1 | -5 | -11 | 6 | 3555
O=C(NCCOCCOCCNC(=O)c1ccccc1)c1ccccc1 | -21 | 2.0 | 3 | -3 | -12 | -1 | 2228
Cc1ccccc1N(CC(=O)N1CCOCC1)S(C)(=O)=O | -9 | 7.3 | 4 | 3 | -7 | 1 | 3456
Cc1c(C(=O)Nc2ccc(Cl)cc2)c2ccccn2c1C(=O)c1ccccc1 | -30 | -3.8 | -6 | 0 | -2 | 9 | 3199
O=C(c1cccc(C(F)(F)F)c1)C1CCCN(C(=O)CCc2cnccn2)C1 (configuration not stated) | -24 | 0.6 | 8 | 13 | 0 | -1 | 4464
O=C1Nc2ccccc2CCc2ccccc21 | -7 | 2.3 | -1 | 1 | 3 | / | 3888
CCn1cc(/C=N\NC(=O)c2c[nH]c3ccccc23)c(C)n1 | -24 | / | / | / | / | 5 | 2368
O=C(Nc1ccc(Oc2ccc(Cl)cc2)c(Cl)c1)c1cc(I)cc(I)c1O | -17 | / | / | / | / | 5 | 4437
NC(=O)COC(=O)C(Cc1ccccc1)NS(=O)(=O)c1ccccc1F (configuration not stated) | -17 | 1.5 | 5 | 1 | -1 | -5 | 3899

Compounds as they come. About 4% of those tested had a hit in this group.
